Screening results: PubChem, Broad Institute
HIV Env fusion: blocks HIV Env-driven cell-cell fusion | HeLa-JRFL Env/CEM21 cell fusion, luciferase | inhibition, % at 12.3 µM | actives 1.1% (n = 360,000);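 active means mean replicate inhibition score of at least 50 and every replicate individually at or above 50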;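 further: 0% = plate neutral controls and 100% = maraviroc near 300 nM; one replicate is shown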
UUG fidelity: alters start codon recognition fidelity in yeast; S. cerevisiae UUG-firefly luciferase reporter, luminescence/redox ratio; activity score, % at 18.7 µM; actives 0.13% (n = 350,000);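 active means replicate mean at a twofold rise or more, about +100% in these data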;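 further: firefly luciferase made from a UUG start codon reports start codon fidelity; reporter light over untreated wells divided by growth signal over untreated wells; some hits fall short of that in this replicate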
* hit, by the source's call; [ ] = another dose, or the depositor's remark.

Results for O=C(N[C@@H]1CC[C@H](CCNS(=O)(=O)Cc2ccccc2)O[C@H]1CO)c1ccccc1F ?
HIV Env fusion: -6[16.7 µM]; UUG fidelity: 1

Results for CNC[C@H]1OCCCC[C@H](C)Oc2ccc(NC(=O)Nc3ccccc3)cc2C(=O)N([C@H](C)CO)C[C@@H]1C ?
HIV Env fusion: 16[16.7 µM]; UUG fidelity: 4

How did C[C@H](CO)N1C[C@H](C)[C@@H](CN(C)Cc2ccncc2)Oc2cc(C#C[C@@H](C)O)ccc2S1(=O)=O do in these assays?
HIV Env fusion: 4[16.7 µM]; UUG fidelity: -4

What do the screens show for `CO[C@H]1CN(C)C(=O)c2cc(NC(=O)c3cc(C)on3)ccc2OC[C@H](C)N(C)C[C@@H]1C`?
HIV Env fusion: 1[16.7 µM]; UUG fidelity: -16

What do the screens show for `C[C@@H]1CN([C@@H](C)CO)C(=O)c2cc(NC(=O)Nc3ccc(C(F)(F)F)cc3)ccc2O[C@@H](C)CCCCO[C@H]1CN(C)S(=O)(=O)c1cccs1`?
HIV Env fusion: 16[16.7 µM]; UUG fidelity: -10

How did Cc1ccc(S(=O)(=O)N[C@H]2CC[C@H](CC(=O)N3CCC(Cc4ccccc4)CC3)O[C@H]2CO)cc1 do in these assays?
HIV Env fusion: 38[16.7 µM]; UUG fidelity: 14

What do the screens show for `C[C@H](CO)N1C[C@H](C)[C@@H](CN(C)S(C)(=O)=O)Oc2ccc(NS(C)(=O)=O)cc2CC1=O`?
HIV Env fusion: 15[16.7 µM]; UUG fidelity: -9

Results for Cc1noc(C)c1S(=O)(=O)N(C)C[C@H]1Oc2ccc(NC(=O)Nc3ccc4c(c3)OCO4)cc2CC(=O)N([C@H](C)CO)C[C@H]1C ?
HIV Env fusion: 17[16.7 µM]; UUG fidelity: -1

Results for Cc1noc(C)c1S(=O)(=O)N(C)C[C@@H]1Oc2ccc(NC(=O)C3CCCCC3)cc2CC(=O)N([C@@H](C)CO)C[C@H]1C ?
HIV Env fusion: -30[16.7 µM]; UUG fidelity: 6

How did Cc1ccc(-c2cnc3c(c2)C(=O)N([C@@H](C)CO)C[C@@H](C)[C@H](CN(C)Cc2ccccc2C(=O)O)O3)cc1 do in these assays?
HIV Env fusion: -1[16.7 µM]; UUG fidelity: 14

How did COc1cccc(C#Cc2cnc3c(c2)C(=O)N([C@@H](C)CO)C[C@H](C)[C@@H](CN(C)C(=O)C2CC2)O3)c1 do in these assays?
HIV Env fusion: 9[16.7 µM]; UUG fidelity: 15

What do the screens show for `C[C@@H]1CN([C@H](C)CO)C(=O)c2cc(NC(=O)CCC(F)(F)F)ccc2O[C@@H](C)CCCCO[C@H]1CN(C)C(=O)Nc1ccc(F)cc1`?
HIV Env fusion: -36[16.7 µM]; UUG fidelity: 12

How did C[C@@H]1CCCCO[C@H](CN(C)Cc2ccc(C(F)(F)F)cc2)[C@H](C)CN([C@H](C)CO)C(=O)c2cc(NS(C)(=O)=O)ccc2O1 do in these assays?
HIV Env fusion: 30[16.7 µM]; UUG fidelity: 8

Results for O=C(N[C@@H]1CC[C@H](CC(=O)N2CCCCC2)O[C@@H]1CO)c1ccc2c(c1)OCO2 ?
HIV Env fusion: 14[16.7 µM]; UUG fidelity: -7

What do the screens show for `CCCC#Cc1cnc2c(c1)C(=O)N([C@@H](C)CO)C[C@@H](C)[C@H](CN(C)C(=O)Nc1ccccc1OC)O2`?
HIV Env fusion: 0[16.7 µM]; UUG fidelity: 16

How did O=C(C[C@@H]1CC[C@@H](NC(=O)c2ccc3c(c2)OCO3)[C@H](CO)O1)NCc1ccc(Cl)cc1 do in these assays?
HIV Env fusion: 11[16.7 µM]; UUG fidelity: -1

Results for COc1cccc(NC(=O)N(C)C[C@@H]2Oc3cc(C#Cc4ccncc4)ccc3S(=O)(=O)N([C@H](C)CO)C[C@H]2C)c1 ?
HIV Env fusion: 1[16.7 µM]; UUG fidelity: 3

How did C[C@H]1CN([C@@H](C)CO)C(=O)Cc2cc(NS(=O)(=O)c3ccc(F)cc3)ccc2O[C@H]1CN(C)C(=O)Nc1ccc(C(F)(F)F)cc1 do in these assays?
HIV Env fusion: 0[16.7 µM]; UUG fidelity: 2

What do the screens show for `Cc1ccc(S(=O)(=O)NCC[C@@H]2CC[C@@H](NC(=O)c3cccc(F)c3)[C@H](CO)O2)cc1`?
HIV Env fusion: -17[16.7 µM]; UUG fidelity: 10

Results for CCC(=O)N(C)C[C@@H]1Oc2cc(-c3ccccc3OC)ccc2S(=O)(=O)N([C@H](C)CO)C[C@@H]1C ?
HIV Env fusion: -16[16.7 µM]; UUG fidelity: -3

Arranged by length of the SMILES (high to low): part of the list above
How did COc1cccc(C#Cc2cnc3c(c2)C(=O)N([C@@H](C)CO)C[C@H](C)[C@@H](CN(C)C(=O)C2CC2)O3)c1 do in these assays?
HIV Env fusion: 9[16.7 µM]; UUG fidelity: 15

Results for CCC(=O)N(C)C[C@@H]1Oc2cc(-c3ccccc3OC)ccc2S(=O)(=O)N([C@H](C)CO)C[C@@H]1C ?
HIV Env fusion: -16[16.7 µM]; UUG fidelity: -3

What do the screens show for `CO[C@H]1CN(C)C(=O)c2cc(NC(=O)c3cc(C)on3)ccc2OC[C@H](C)N(C)C[C@@H]1C`?
HIV Env fusion: 1[16.7 µM]; UUG fidelity: -16

The listing continues.
How did C[C@@H]1CN([C@H](C)CO)C(=O)Cc2cc(NS(=O)(=O)c3cn(C)cn3)ccc2O[C@@H]1CN(C)C(=O)Nc1cccc2ccccc12 do in these assays?
HIV Env fusion: -2[16.7 µM]; UUG fidelity: -12

How did O=C(C[C@H]1C[C@@H]2c3cc(NC(=O)C4CCOCC4)ccc3O[C@@H]2[C@@H](CO)O1)NCc1ccc(Cl)cc1 do in these assays?
HIV Env fusion: 1[16.7 µM]; UUG fidelity: 25

Results for C/C=C/c1ccc([C@H]2[C@@H](C#N)N(C(=O)Cc3ccccn3)[C@@H]2CO)cc1 ?
HIV Env fusion: 1[16.7 µM]; UUG fidelity: -29

What do the screens show for `C[C@@H]1CN([C@@H](C)CO)C(=O)Cc2cc(NC(=O)C3CC3)ccc2O[C@@H]1CN(C)CC1CCCCC1`?
HIV Env fusion: -4[16.7 µM]; UUG fidelity: -6

What do the screens show for `CN(C)CC(=O)N[C@H]1CC[C@H](CCNC(=O)C2CCC2)O[C@H]1CO`?
HIV Env fusion: -23[16.7 µM]; UUG fidelity: -2

Results for C[C@H](CO)N1C[C@H](C)[C@@H](CN(C)S(=O)(=O)c2ccc(Cl)cc2)Oc2ccc(NC(=O)Nc3cccc4ccccc34)cc2CC1=O ?
HIV Env fusion: -24[16.7 µM]; UUG fidelity: 3

Results for C[C@@H]1CCCCO[C@@H](CN(C)S(=O)(=O)c2cccs2)[C@H](C)CN([C@@H](C)CO)C(=O)c2cc(NS(=O)(=O)c3ccc(Cl)cc3)ccc2O1 ?
HIV Env fusion: 11[16.7 µM]; UUG fidelity: 3

How did CCNC(=O)C[C@H]1CC[C@H]2[C@H](COc3ccc(NC(=O)c4ccc(F)cc4)cc3C(=O)N2C)O1 do in these assays?
HIV Env fusion: -7[16.7 µM]; UUG fidelity: 2

How did C[C@@H]1CCCCO[C@@H](CN(C)Cc2ccccc2)[C@H](C)CN([C@@H](C)CO)C(=O)c2cc(NS(=O)(=O)c3ccc(Cl)cc3)ccc2O1 do in these assays?
HIV Env fusion: -6[16.7 µM]; UUG fidelity: 48

Results for O=C(C[C@H]1C=C[C@H](NC(=O)CCN2CCCCC2)[C@@H](CO)O1)Nc1nccs1 ?
HIV Env fusion: 2[16.7 µM]; UUG fidelity: -3

Results for C[C@@H]1CN([C@H](C)CO)C(=O)c2cc(NC(=O)Nc3ccc4c(c3)OCO4)ccc2O[C@@H](C)CCCCO[C@@H]1CN(C)S(=O)(=O)c1cccs1 ?
HIV Env fusion: 2[16.7 µM]; UUG fidelity: -18

How did O=C(CCN1CCCCC1)NCC[C@H]1CC[C@H](NC(=O)C2CCC2)[C@@H](CO)O1 do in these assays?
HIV Env fusion: -17[16.7 µM]; UUG fidelity: -5

Results for CCCNC(=O)N1C[C@H](O)COC[C@H]2O[C@@H](CC(=O)NCc3ccc(Cl)c(Cl)c3)CC[C@@H]21 ?
HIV Env fusion: 9[16.7 µM]; UUG fidelity: -2

What do the screens show for `C[C@H](CO)N1C[C@H](C)[C@H](CN(C)C)Oc2ncc(-c3cccc(C(=O)N(C)C)c3)cc2C1=O`?
HIV Env fusion: -22[16.7 µM]; UUG fidelity: -11

How did C[C@H](CO)N1C[C@H](C)[C@H](CN(C)Cc2ccncc2)Oc2ccc(NC(=O)c3ccncc3)cc2CC1=O do in these assays?
HIV Env fusion: -3[16.7 µM]; UUG fidelity: 2

What do the screens show for `CCCC(=O)Nc1ccc2c(c1)C(=O)N(C)[C@@H]1CC[C@H](CC(=O)NCc3ccccc3F)O[C@H]1CO2`?
HIV Env fusion: 9[16.7 µM]; UUG fidelity: 10

How did C[C@@H]1CN([C@H](C)CO)C(=O)c2cc(Br)cnc2O[C@@H]1CN(C)C(=O)C1CCCCC1 do in these assays?
HIV Env fusion: -6[16.7 µM]; UUG fidelity: -3

What do the screens show for `COc1ccc(CN(C)C[C@@H]2OCCCC[C@@H](C)Oc3ccc(NS(=O)(=O)c4c(C)noc4C)cc3C(=O)N([C@@H](C)CO)C[C@H]2C)cc1`?
HIV Env fusion: 47[16.7 µM]; UUG fidelity: 1

How did Cc1noc(C)c1NC(=O)N(C)C[C@H]1Oc2ccc(NC(=O)CCCN(C)C)cc2CC(=O)N([C@@H](C)CO)C[C@@H]1C do in these assays?
HIV Env fusion: -14[16.7 µM]; UUG fidelity: 30

What do the screens show for `O=C(N[C@H]1CC[C@@H](CCNS(=O)(=O)c2ccc(F)cc2)O[C@H]1CO)C1CCOCC1`?
HIV Env fusion: -8[16.7 µM]; UUG fidelity: 6

Results for CNC[C@H]1Oc2cc(C#Cc3ccc(OC)cc3)ccc2S(=O)(=O)N([C@@H](C)CO)C[C@@H]1C ?
HIV Env fusion: 8[16.7 µM]; UUG fidelity: 1

What do the screens show for `C[C@@H]1CN([C@H](C)CO)S(=O)(=O)c2ccc(C3=CCCC3)cc2O[C@H]1CN(C)C(=O)c1ccccc1`?
HIV Env fusion: 21[16.7 µM]; UUG fidelity: 15

What do the screens show for `C[C@@H]1CCCCO[C@@H](CN(C)Cc2ccc(Cl)c(Cl)c2)[C@@H](C)CN([C@H](C)CO)C(=O)c2cc(NS(C)(=O)=O)ccc2O1`?
HIV Env fusion: -51[16.7 µM]; UUG fidelity: -2

Results for C[C@@H]1CN([C@@H](C)CO)C(=O)c2cccc(NC(=O)Nc3ccccc3)c2O[C@@H]1CN(C)Cc1ccc(Cl)c(Cl)c1 ?
HIV Env fusion: 17[16.7 µM]; UUG fidelity: 13

What do the screens show for `O=C(C[C@H]1C=C[C@@H](NC(=O)Nc2cc(F)ccc2F)[C@@H](CO)O1)NCc1ccncn1`?
HIV Env fusion: -20[16.7 µM]; UUG fidelity: 0

What do the screens show for `Cc1ccc(S(=O)(=O)Nc2ccc3c(c2)C(=O)N([C@@H](C)CO)C[C@@H](C)[C@@H](CN(C)S(=O)(=O)c2ccccc2)O3)cc1`?
HIV Env fusion: -11[16.7 µM]; UUG fidelity: 0

What do the screens show for `O=C(Nc1ccc2c(c1)[C@@H]1C[C@@H](CC(=O)N3CCOCC3)O[C@H](CO)[C@@H]1O2)C1CCOCC1`?
HIV Env fusion: 24[16.7 µM]; UUG fidelity: -1

How did COc1ccc(C#Cc2cnc3c(c2)C(=O)N([C@@H](C)CO)C[C@H](C)[C@@H](CN(C)CC2CCOCC2)O3)cc1 do in these assays?
HIV Env fusion: -21[16.7 µM]; UUG fidelity: 1

How did COc1cccc(S(=O)(=O)Nc2ccc3c(c2)OC[C@@H](C)N(Cc2cc(F)ccc2F)C[C@@H](C)[C@H](OC)CN(C)C3=O)c1 do in these assays?
HIV Env fusion: -18[16.7 µM]; UUG fidelity: 4

How did COCC#Cc1cnc2c(c1)C(=O)N([C@H](C)CO)C[C@H](C)[C@H](CN(C)C(=O)c1ccc3c(c1)OCO3)O2 do in these assays?
HIV Env fusion: -16[16.7 µM]; UUG fidelity: 5

Results for C[C@@H]1CCCCO[C@@H](CN(C)S(=O)(=O)c2ccc(Cl)cc2)[C@H](C)CN([C@@H](C)CO)C(=O)c2cc(NC(=O)Nc3ccc(F)cc3)ccc2O1 ?
HIV Env fusion: 21[16.7 µM]; UUG fidelity: 3

How did C[C@@H]1CN([C@H](C)CO)C(=O)Cc2cc(NS(=O)(=O)c3ccccc3)ccc2O[C@@H]1CN(C)S(C)(=O)=O do in these assays?
HIV Env fusion: -1[16.7 µM]; UUG fidelity: -8

What do the screens show for `COc1ccc(S(=O)(=O)N(C)C[C@@H]2Oc3cc(C#CC4CC4)ccc3S(=O)(=O)N([C@@H](C)CO)C[C@@H]2C)cc1`?
HIV Env fusion: 1[16.7 µM]; UUG fidelity: 8

How did C[C@@H]1CCCCO[C@H](CN(C)C(=O)c2ccccc2)[C@H](C)CN([C@@H](C)CO)C(=O)c2cc(NS(=O)(=O)c3ccc(Cl)cc3)ccc2O1 do in these assays?
HIV Env fusion: -19[16.7 µM]; UUG fidelity: 22

What do the screens show for `CCNC(=O)Nc1ccc2c(c1)C(=O)N(C)[C@H]1CC[C@@H](CC(=O)NCc3ccc(F)cc3)O[C@@H]1CO2`?
HIV Env fusion: -1[16.7 µM]; UUG fidelity: 15

As a working copy, part of the list above:
Results for CNC[C@H]1Oc2cc(C#Cc3ccc(OC)cc3)ccc2S(=O)(=O)N([C@@H](C)CO)C[C@@H]1C ?
HIV Env fusion: 8[16.7 µM]; UUG fidelity: 1

What do the screens show for `C[C@@H]1CN([C@H](C)CO)S(=O)(=O)c2ccc(C3=CCCC3)cc2O[C@H]1CN(C)C(=O)c1ccccc1`?
HIV Env fusion: 21[16.7 µM]; UUG fidelity: 15

What do the screens show for `C[C@@H]1CCCCO[C@@H](CN(C)Cc2ccc(Cl)c(Cl)c2)[C@@H](C)CN([C@H](C)CO)C(=O)c2cc(NS(C)(=O)=O)ccc2O1`?
HIV Env fusion: -51[16.7 µM]; UUG fidelity: -2

An excerpt; count on the stated rates, not on these rows.
